# FGF22 binding: binders of recombinant human FGF22 by thermal shift | 340,000 tested, 1.5% active | SYPRO orange fluorescence; percent of sucrose octasulfate shift, DMSO zero | calls only at 9.99 µM | AID 651658 | Q9HCT0;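 active = melting point raised past a set limit in the mean and every replicate; three in four hits are not shown here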
# Target sequence (Q9HCT0 whole entry, looked up): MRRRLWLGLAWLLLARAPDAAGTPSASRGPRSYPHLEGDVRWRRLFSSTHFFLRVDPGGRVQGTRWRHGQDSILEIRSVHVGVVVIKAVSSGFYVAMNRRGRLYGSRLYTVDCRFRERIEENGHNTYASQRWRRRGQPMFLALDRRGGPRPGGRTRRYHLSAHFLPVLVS
# rRNA inh HTS: selective bacterial rRNA inhibition in E. coli; E. coli WT GFP vs humanized-ribosome RFP mutants, fluorescence, 24 h; hits give low values; DMSO median 0, no signal -100; GFP signal change (wild-type ribosome), % (concentration not given with the values); 350,000 tested, 1.6% active; AID 720706;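 active = significant combined selectivity score with lowered wild-type GFP, culture density cut under 30%, mutant RFP and density less affected; inactive = any of these conditions unmet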; also: one replicate is shown; some compounds called inactive have numbers as strong as hits
# AF4-AF9 inh: inhibitors of human MLL-AF4/AF9 interaction; AlphaScreen, biotin-AF4 peptide binding to FLAG-AF9; inhibition, % at 10 µM; 350,000 tested, 0.47% active;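 active = every replicate reaching a set inhibition limit, whatever the replicate mean, cut at about 25% in these data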;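 also: 0% = plate neutral control median and 100% = total signal loss; the record names both 10 and 1 µM as test concentration; the first replicate is given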
# Target sequence (P42568 whole entry, looked up): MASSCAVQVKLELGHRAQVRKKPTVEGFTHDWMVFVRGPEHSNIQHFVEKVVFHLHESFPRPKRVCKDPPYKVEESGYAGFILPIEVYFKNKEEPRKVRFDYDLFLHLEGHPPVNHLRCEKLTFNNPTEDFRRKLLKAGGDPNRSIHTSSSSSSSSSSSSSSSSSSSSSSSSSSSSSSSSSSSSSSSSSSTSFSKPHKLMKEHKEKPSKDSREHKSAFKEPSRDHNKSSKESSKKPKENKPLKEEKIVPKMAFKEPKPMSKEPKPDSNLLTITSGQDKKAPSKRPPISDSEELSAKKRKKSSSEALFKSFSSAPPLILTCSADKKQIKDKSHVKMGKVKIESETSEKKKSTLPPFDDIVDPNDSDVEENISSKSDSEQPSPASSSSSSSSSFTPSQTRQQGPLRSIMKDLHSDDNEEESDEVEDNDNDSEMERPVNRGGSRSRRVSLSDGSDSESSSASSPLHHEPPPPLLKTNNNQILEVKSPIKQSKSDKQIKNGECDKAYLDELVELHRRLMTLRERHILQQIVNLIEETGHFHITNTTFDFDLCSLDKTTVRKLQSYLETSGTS
# rRNA inh HTS OD600: recorded beside rRNA inh HTS, whose call it bears; OD600 change, %; measured here: OD600 growth;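 optical density of the mix in the first replicate; 0 = DMSO median and -100 = no signal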
# rRNA inh HTS RFP: recorded beside rRNA inh HTS, whose call it bears; RFP signal change, %; measured here: RFP humanized mutant strains;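 first replicate; 0 = DMSO median and -100 = no signal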
# Active calls of the source: *; i = inactive; · = not tested or not shown; + = active, no number.
1. COc1ccc2nc(-c3ccccc3)[nH]c(=O)c2c1
2. CO[C@@H]1CN(C)C(=O)c2cc(NC(=O)C3CCCC3)ccc2OC[C@@H](C)N(C(=O)Nc2ccc(C(F)(F)F)cc2)C[C@H]1C
3. O=C1NC[C@H](CCCCN2C[C@H](Cc3ccccc3)N(Cc3ccccc3)C(=O)C2=O)N(CC2CCCCC2)C1=O
4. CC(C)NC(=O)Nc1ccc2c(c1)CC(=O)N([C@@H](C)CO)C[C@H](C)[C@@H](CN(C)Cc1ccc(C(F)(F)F)cc1)O2
5. Cc1noc(C)c1S(=O)(=O)Nc1ccc2c(c1)C(=O)N([C@H](C)CO)C[C@H](C)[C@@H](CN(C)Cc1ccc(C(F)(F)F)cc1)OCCCC[C@@H](C)O2
6. C[C@@H]1CN([C@@H](C)CO)S(=O)(=O)c2ccc(C3=CCCCC3)cc2O[C@@H]1CN(C)Cc1cccc(C(=O)O)c1
7. O=C(Cc1ccccc1)N1CC[C@@H]2[C@@H](CO)Nc3ccc(Br)cc3[C@@H]21
8. CC(=O)OCC(=O)NCC1CCN(C(=O)C(=O)c2cc3ccccc3o2)CC1
assay / entry	1	2	3	4	5	6	7	8
rRNA inh HTS	2	-38*	5	-1	-1	0	-6	14
FGF22 binding	i	i	i	i	i	i	i	i
rRNA inh HTS OD600	-9	-18*	7	0	-8	2	-8	9
rRNA inh HTS RFP	-1.8	-5.9*	-0.1	6.3	0.8	-6.8	2.8	-1.0
AF4-AF9 inh	-2.8	-5.6	0.0	0.8	1.8	-3.2	1.8	0.1

# Looked up one by one from the entries so far (3):
2. CO[C@@H]1CN(C)C(=O)c2cc(NC(=O)C3CCCC3)ccc2OC[C@@H](C)N(C(=O)Nc2ccc(C(F)(F)F)cc2)C[C@H]1C
1. COc1ccc2nc(-c3ccccc3)[nH]c(=O)c2c1
6. C[C@@H]1CN([C@@H](C)CO)S(=O)(=O)c2ccc(C3=CCCCC3)cc2O[C@@H]1CN(C)Cc1cccc(C(=O)O)c1
assay / entry	2	1	6
rRNA inh HTS	-38*	2	0
FGF22 binding	i	i	i
rRNA inh HTS OD600	-18*	-9	2
rRNA inh HTS RFP	-5.9*	-1.8	-6.8
AF4-AF9 inh	-5.6	-2.8	-3.2

# Later entries
9. CNC[C@H]1OCCCC[C@@H](C)Oc2ccc(NC(=O)Nc3ccccc3)cc2C(=O)N([C@@H](C)CO)C[C@@H]1C
10. Cc1ccc([C@@H]2C[C@H]3[C@@H](CN2S(=O)(=O)c2ccc(C)cc2)C(=O)C[C@@H](c2ccc(C)cc2)N3S(=O)(=O)c2ccc(Cl)cc2)cc1
11. C[C@H](NC(=O)C[C@@H]1C[C@@H]2c3cc(NS(=O)(=O)c4ccc(F)cc4)ccc3O[C@@H]2[C@H](CO)O1)c1ccccc1
12. Cc1ccc(S(=O)(=O)Nc2ccc3c(c2)CC(=O)N([C@@H](C)CO)C[C@@H](C)[C@@H](CN(C)C(=O)Nc2ccccc2)O3)cc1
13. CCCNC(=O)N(C)C[C@@H]1Oc2cc(-c3cccnc3)ccc2S(=O)(=O)N([C@@H](C)CO)C[C@H]1C
14. O=C1CN(Cc2ccccc2)C[C@H]2[C@H](c3ccc(Br)cc3)[C@H](CO)N12
15. O=C(C[C@@H]1C[C@H]2c3cc(NC(=O)Nc4ccc(C(F)(F)F)cc4)ccc3O[C@H]2[C@@H](CO)O1)NCc1cc(F)ccc1F
16. O=C(Nc1cccc(Cl)c1)N1C[C@@H]2[C@H](c3ccccc31)[C@H](CO)N2CC1CCOCC1
assay / entry	9	10	11	12	13	14	15	16
rRNA inh HTS	9	13	-3	-4	5	5	-4	-22
FGF22 binding	i	i	i	i	i	i	i	i
rRNA inh HTS OD600	10	18	-8	-11	7	9	-6	-32
rRNA inh HTS RFP	-0.4	0.8	3.8	0.1	-3.4	-5.0	1.3	5.5
AF4-AF9 inh	4.0	1.1	-1.1	0.0	1.4	1.7	-40	-11

17. Cc1ccc(S(=O)(=O)N2C[C@H]3[C@H]4C(=O)N(C5CCCCC5)C(=O)[C@H]4CC(=O)[C@H]3[C@@H]2c2cccc3ccccc23)cc1
18. CC(=O)N(C)C[C@@H]1Oc2cc(-c3cccnc3)ccc2S(=O)(=O)N([C@@H](C)CO)C[C@H]1C
19. COC(=O)[C@]12C[C@H](CC(=O)NCC34CC5CC(CC(C5)C3)C4)C(=O)N(Cc3ccccc3)C1=C[C@H](C(C)C)O[C@@H]2C1CC1
20. C[C@H](CO)N1C[C@H](C)[C@H](CN(C)Cc2ccccc2)Oc2c(NC(=O)C3CCCCC3)cccc2C1=O
21. CC1(C(=O)NCc2ccc(C(F)(F)F)cc2)CCN1Cc1ccccc1OC(F)F (centres undefined)
22. C[C@H]1CN([C@@H](C)CO)C(=O)c2cc(NC(=O)Cn3cnnn3)ccc2O[C@@H]1CN(C)S(=O)(=O)c1cn(C)cn1
23. CO[C@@H]1CN(C)C(=O)c2ccc(NC(=O)Nc3cccc(F)c3)cc2OC[C@@H](C)NC[C@@H]1C
24. CC(c1nc2ccccc2[nH]1)n1c(=O)c(-c2cccs2)nc2ccccc21 (centres undefined)
assay / entry	17	18	19	20	21	22	23	24
rRNA inh HTS	9	0	14	0	-18	0	-1	5
FGF22 binding	i	i	i	i	i	i	i	i
rRNA inh HTS OD600	11	-3	6	-10	-31	4	1	14
rRNA inh HTS RFP	-0.9	-4.2	1.2	-2.2	-13	-0.1	4.9	0.2
AF4-AF9 inh	1.2	3.9	4.0	-1.1	-2.8	-4.4	4.1	-2.7

25. C[C@@H]1CN([C@@H](C)CO)C(=O)c2cccc(NC(=O)C3CCCCC3)c2O[C@H]1CN(C)S(=O)(=O)c1cccs1
26. C[C@H](CO)N1C[C@H](C)[C@H](CN(C)C(=O)Nc2ccc3c(c2)OCO3)Oc2ccc(NC(=O)Cc3cn(C)c4ccccc34)cc2C1=O
27. C/C=C/c1cnc2c(c1)C(=O)N([C@H](C)CO)C[C@@H](C)[C@@H](CN(C)C(=O)c1cccnc1)O2
28. CO[C@H]1CC[C@@H]2CCOc3c(C#N)cccc3C(=O)N(C)CC3(CCCCC3)CC(=O)N(C)C[C@H]1O2
29. CCCNC(=O)Nc1ccc2c(c1)OC[C@H](C)N(CCC(F)(F)F)C[C@H](C)[C@H](OC)CN(C)C2=O
30. C[C@@H]1CN([C@H](C)CO)C(=O)Cc2cc(NC(=O)Nc3ccccc3)ccc2O[C@H]1CN(C)Cc1ccc2c(c1)OCO2
31. CCCCS(=O)(=O)N1CCCc2nc(-c3ccccc3)ccc21
32. O=C1CC2CCCC(C1)S2=O (centres undefined)
assay / entry	25	26	27	28	29	30	31	32
rRNA inh HTS	-1	-2	5	-4	1	-1	-15	15
FGF22 binding	i	i	i	i	i	i	·	i
rRNA inh HTS OD600	-9	-14	16	-3	-2	-14	-29	9
rRNA inh HTS RFP	1.1	2.4	0.0	2.3	-2.1	-0.9	-4.8	-1.3
AF4-AF9 inh	-0.1	6.9	-7.3	0.8	2.1	1.1	-5.5	-2.5

33. O=C(Nc1ccc(Cl)c(Cl)c1)N[C@H]1CC[C@H](CCn2cc(C3CC3)nn2)O[C@H]1CO
34. Cc1ccc(NC(=O)c2ncn(CCCNCCCN(C)C)n2)cc1C
35. C[C@H]1CN([C@@H](C)CO)C(=O)c2cccc(NC(=O)NC3CCCCC3)c2O[C@@H]1CN(C)Cc1ccc(C(F)(F)F)cc1
36. COCC#Cc1ccc([C@@H]2[C@H](CO)N3CCCCN(C(=O)CN(C)C)C[C@@H]23)cc1
37. C[C@@H]1CN([C@H](C)CO)C(=O)c2cccc(NS(=O)(=O)c3ccc(F)cc3)c2O[C@@H]1CN(C)S(=O)(=O)c1cccs1
38. CN(C)Cc1cn(CC[C@@H]2CC[C@H](NS(=O)(=O)c3ccc(-c4ccccc4)cc3)[C@H](CO)O2)nn1
39. C[C@@H]1CN([C@H](C)CO)C(=O)c2cc(NS(=O)(=O)c3cccs3)ccc2O[C@H]1CN(C)Cc1ccc(-c2ccccc2)cc1
40. C[C@@H]1CN([C@H](C)CO)C(=O)c2cc(NC(=O)c3ccncc3)ccc2O[C@@H](C)CCCCO[C@H]1CN(C)C(=O)Nc1ccc2c(c1)OCO2
assay / entry	33	34	35	36	37	38	39	40
rRNA inh HTS	-11	3	3	5	-3	0	-2	-2
FGF22 binding	i	i	i	i	i	i	i	i
rRNA inh HTS OD600	-18	10	0	6	-6	-5	-13	-4
rRNA inh HTS RFP	4.0	6.4	0.7	-3.3	-1.2	1.3	3.7	-0.5
AF4-AF9 inh	0.2	5.6	3.8	6.6	-2.3	2.7	4.7	-2.5

41. CNC(=O)C[C@H]1CC[C@@H]2[C@@H](COc3ccc(NC(=O)c4ccccc4Cl)cc3C(=O)N2C)O1
42. Cc1ccc(S(=O)(=O)N(C)C[C@H]2Oc3c(NC(=O)c4cnccn4)cccc3C(=O)N([C@H](C)CO)C[C@@H]2C)cc1
43. CC(=O)c1ccc(OCc2c(-c3ccccc3)nnn2CC(=O)NS(=O)(=O)c2ccccc2C)cc1
44. CN1C(=O)c2cc(NC(=O)NC3CCCC3)ccc2OC[C@@H]2O[C@H](CC(=O)NC3CCC3)CC[C@H]21
45. C[C@@H](NC(=O)C[C@H]1CC[C@H](NC(=O)C2CCC2)[C@@H](CO)O1)c1ccccc1
46. COc1cccc(CN2CCC3(CC2)CN(C(=O)C2CC2)[C@@H](CO)c2[nH]c4cc(OC)ccc4c23)c1
47. COCC(=O)N(C)C[C@@H]1Oc2cc(C#CCN(C)C)ccc2S(=O)(=O)N([C@@H](C)CO)C[C@H]1C
48. C[C@H](CO)N1C[C@H](C)[C@@H](CN(C)CC2CC2)Oc2ccc(NC(=O)Nc3ccc4c(c3)OCO4)cc2CC1=O
assay / entry	41	42	43	44	45	46	47	48
rRNA inh HTS	0	0	8	4	-1	-1	1	-1
FGF22 binding	i	i	i	i	i	i	i	i
rRNA inh HTS OD600	0	-2	20	0	0	-3	6	-6
rRNA inh HTS RFP	-0.3	0.2	1.0	-2.4	-3.5	-2.0	-2.5	-2.2
AF4-AF9 inh	-1.4	-3.2	-2.6	-3.5	-1.0	10	-2.3	22

49. CCCCC[C@H](C)N1C[C@@H](COCc2ccccc2)Oc2cc(N3CCC[C@@H]3COC)ccc2S1(=O)=O
50. COc1ccc(S(=O)(=O)NC(=O)C2(C)CCN2C(=O)C2(c3ccccc3)CC2)cc1 (centres undefined)
51. N#C[C@H]1[C@@H](c2ccccc2C2=CCCC2)[C@H](CO)N1S(=O)(=O)c1cccc(F)c1
52. C[C@@H]1CCCCO[C@H](CN(C)C(=O)c2ccccc2)[C@@H](C)CN([C@@H](C)CO)C(=O)c2cc(NC(=O)C3CCCCC3)ccc2O1
53. C[C@@H]1CCCCO[C@@H](CN(C)S(=O)(=O)c2cccs2)[C@@H](C)CN([C@@H](C)CO)C(=O)c2cc(NC(=O)C3CCCCC3)ccc2O1
54. O=C(c1ccccn1)N1CC2(C1)[C@H](c1ccccc1)[C@H](CO)N2C(=O)C1CCCCC1
55. COc1ccccc1NC(=O)N1CC[C@H]2[C@@H]1c1cc(-c3ccccc3)ccc1N(C)[C@H]2CO
56. O=C(C[C@@H]1CC[C@H]2[C@@H](COC[C@@H](O)CN2CC2CCOCC2)O1)NCC1CCCCC1
assay / entry	49	50	51	52	53	54	55	56
rRNA inh HTS	4	9	-10	-2	0	-1	-5	i
FGF22 binding	i	i	i	i	i	i	i	+
rRNA inh HTS OD600	-5	4	-18	-5	-3	1	1	·
rRNA inh HTS RFP	0.8	-0.5	9.5	2.0	1.3	-0.7	10	·
AF4-AF9 inh	-2.5	0.9	0.0	1.2	-3.1	-2.3	-0.8	-3.0

57. C[C@H]1CN([C@@H](C)CO)C(=O)c2cccc(NC(=O)C3CCCCC3)c2O[C@H]1CN(C)C(=O)NC1CCCCC1
58. COc1ccc(N2C[C@@]3(O)CC[C@@H](O)[C@@H](OC)[C@@H]3[C@@]2(C)[C@H](O)CC=C(C)C)cc1
59. CCCC#Cc1ccc2c(c1)O[C@H](CN(C)C(=O)c1cccnc1)[C@H](C)CN([C@@H](C)CO)S2(=O)=O
60. COc1ccccc1C#Cc1ccc2c(c1)[C@H]1[C@H](CCN1S(=O)(=O)c1ccccc1)[C@@H](CO)N2
61. C[C@@H]1CN([C@H](C)CO)C(=O)c2cc(NC(=O)Nc3ccc(C(F)(F)F)cc3)ccc2O[C@H]1CN(C)Cc1ccncc1
62. C[C@@H]1CN([C@H](C)CO)C(=O)c2cc(N(C)C)ccc2O[C@@H](C)CCCCO[C@@H]1CN(C)Cc1ccc2c(c1)OCO2
63. Cc1ccc(S(=O)(=O)N(C)C[C@H]2Oc3ccc(NC(=O)Nc4ccc(F)cc4)cc3CC(=O)N([C@@H](C)CO)C[C@@H]2C)cc1
assay / entry	57	58	59	60	61	62	63
rRNA inh HTS	-4	15	1	1	-12	-1	0
FGF22 binding	i	·	i	i	i	i	i
rRNA inh HTS OD600	0	8	-4	9	-46	-5	-2
rRNA inh HTS RFP	-1.0	12	-3.3	-3.1	26	-2.7	1.6
AF4-AF9 inh	-1.1	1.2	-2.4	0.3	0.9	4.5	-0.3

# Screening data from PubChem.

# A portion of the library, so the mix of outcomes need not match the whole.
